Screens deposited in PubChem BioAssay by National Center for Advancing Translational Sciences (NCATS).
2A Renilla = FMDV 2A StopGo reporter, Renilla signal; HEK cells with a luciferase reporter of 2A StopGo recoding; Potency, µM (series often up to 57.5 µM), for inactives: at the top dose signal change, negative = less light; actives 0.32% (n = 120,000); AID 1745857; active means well fitted falling curve with a large enough effect; inconclusive means small, poorly fitted or top-dose-only effect; inactive means no such curve, though single readings can be large or run the other way; note: nearly all actives have a fitted effect of over 55% in size; overnight with compound
2A firefly = lowers the firefly signal of an FMDV 2A StopGo reporter; HEK cells with a luciferase reporter of 2A StopGo recoding; Potency, µM (doses to about 57.5 µM), without a hit: top-dose signal change, negative = less light; actives 0.23% (n = 120,000); AID 1745856; active = well fitted falling curve with a large enough effect; inconclusive = small, poorly fitted or top-dose-only effect; inactive = no such curve, though single readings can be large or run the other way; note: nearly all actives have a fitted effect of over 60% in size; overnight with compound
* hit, by the source's call; ? = inconclusive; & = joins results of further samples; [ ] = dose if it differs, or a comment. % is set by controls: 0 for no effect and ±100 for the full control effect; potency is the fitted concentration of half-maximal effect.

SMILES	2A Renilla	2A firefly
COc1ccc2nc(-c3ccc4c(c3)OCO4)cc(C(=O)O)c2c1	15%	79%[activator]
Cc1cc(C)c2c(CCCC(=O)O)c(-c3ccccn3)[nH]c2c1	-2%	0%
COc1ccc(S(=O)(=O)N2CCC(n3c(C)nc4cccnc43)CC2)cc1Cl	-8%	-10%
CCOc1ccc(Nc2nc(-c3sc(NC(C)=O)nc3C)cs2)cc1	-5%	27%
COc1ccc(-c2c(C#N)c(N)nc3c2CN(Cc2ccccc2)CC3)cc1OC	24%	22%
Cc1c(Cl)cccc1NC(=O)CSc1cc(-c2ccccc2)ncn1	-13%	-17%
Cc1cc(=O)n2[nH]c(NC(=O)c3ccccc3F)nc2n1	-10%	-1%
COc1ccc2ccccc2c1C1C(C#N)=C(N)OC2=C1C(=O)CC(C)(C)C2 (configuration not stated)	56%[activator]	38%[activator]
CCc1ccc2nc(N3CCN(C(=O)C4CC4)CC3)sc2c1	-7%	42%[activator]
CCOc1cc(C(=O)Nc2ccc3oc(=O)ccc3c2)cc(OCC)c1OCC	14%	17%
C=CCNC(=O)c1cc(-c2ccc(OC)cc2)nc2ccc(C(C)C)cc12	0%	10%
COc1ccc2c(C)c(CC(=O)Nc3cccc(C(C)=O)c3)c(=O)oc2c1C	8%	24%
CCn1nnc2cc(C(=O)OCc3cc(=O)oc4cc(C)ccc34)ccc21	-11%	6%
O=C(CSc1ncc(-c2ccccc2)[nH]1)Nc1cccc(C(F)(F)F)c1	-9%	-2%
CCC(C)OC(=O)/C(C#N)=C\c1ccc(-c2cccc(C(F)(F)F)c2)o1 (configuration not stated)	-12%	-10%
CN(C)CCNc1oc(-c2cccs2)nc1C#N	3%	-9%
CCCn1c(CCC(=O)Nc2cc(C(=O)OC)cc(C(=O)OC)c2)nc2cccnc21	62%[activator]	15%
Cc1c(CCC(=O)NCCc2ccccc2)c(=O)oc2cc(O)ccc12	0%&32%	9%&27%
CCOc1ccc(C2c3[nH]c4ccccc4c3CCN2C(=O)CCc2ccccc2)cc1 (configuration not stated)	-27%	?
CCOC(=O)c1c(NC(=O)c2cc3ccccc3c(=O)o2)sc2c1CCC(C)C2 (configuration not stated)	11%	12%
COc1ccccc1C(=O)Nc1ccc(-c2nc3ncccc3o2)cc1	23%	0%
O=C(CCSc1ccccc1)N1CCC(c2nnc3n2CCC3)CC1	-8%	64%[activator]
COc1ccc(-c2cn3c(n2)sc2cc(C(=O)Nc4c(C)cccc4C)ccc23)cc1	-4%	21%
CCCn1nc(C(=O)OCc2nc(-c3cccc(OC)c3)no2)c2ccccc2c1=O	-8%	0%
Cc1ccc(C(=O)Nc2cc(-c3nc4cc(Cl)ccc4o3)ccc2C)c(C)c1	-7%	-8%

Continuation:
SMILES	2A Renilla	2A firefly
COc1ccc(Cl)cc1NC(=O)c1ccc2c(c1)CCCN2S(C)(=O)=O	19%	3%
COc1ccc(OC)c(CNC(=O)CSc2c3c(nc4cc(Cl)ccc24)CCCC3)c1	-6%	-1%
CCN(c1ccccc1)S(=O)(=O)c1ccc(NC(=O)c2cc(=O)c3ccc(C)cc3o2)cc1	12%	24%
Cn1c(=O)c2cn(S(=O)(=O)c3ccccc3)nc2n(C)c1=O	-7%	-4%
Cc1ccc(-c2csc3c2NC(=O)CC3c2ccc(C)cc2)cc1 (configuration not stated)	-2%	8%
COc1ccccc1CNC(=O)Cn1c(=O)oc2cc(S(=O)(=O)N3CCCC3)ccc21	5%	7%
Cc1ccc(CNC(=O)CSc2ncc(S(=O)(=O)c3ccc(C)c(Cl)c3)c(=O)[nH]2)cc1	-2%	4%
CCOCCCNCc1cc(=O)oc2ccc3ccccc3c12	21%	15%
CC1=C(c2ccc(C)c(C)c2)S(=O)(=O)N=C1N1CCC(C(=O)NCc2ccc(Cl)cc2)CC1	45%[activator]	0%
CC(CC(=O)NCc1ccc(Cl)cc1Cl)CC1=NS(=O)(=O)c2ccccc2N1 (configuration not stated)	80%[activator]	3%
CCC1CCCCN1CCCNC(=O)c1cn(C)c2ccc(S(=O)(=O)N(C)C3CCCCC3)cc2c1=O (configuration not stated)	-9%	-2%
CC(C)C1N=C2c3ccccc3N=C(SCC(=O)NCc3ccccc3Cl)N2C1=O (configuration not stated)	185%[activator]	11%
O/N=C(\c1ccc(O)cc1O)c1ccccc1F	24%	94%[activator]
CC(C)CCOC(=O)C(C)Oc1ccc2c(=O)c(-c3ccccc3Cl)coc2c1 (configuration not stated)	1%	7%
COc1ccc(CCNC(=O)CCn2c(=O)c3ccccc3n(Cc3ccc(Cl)cc3)c2=O)cc1OC	-2%	-14%
CC(=O)c1cccc(NC(=O)CSc2nc3c(-c4ccccc4)c[nH]c3c(=O)n2C2CC2)c1	114%[activator]	0%
N=C(N)CCl	13%	15%
CCN(CC)CCNC(=O)c1c(C)[nH]c(/C=C2\C(=O)Nc3ccc(F)cc32)c1C	3%	-4%[11.5 µM]
CC(=O)OC1(C)CCC2C3CCC4CC(=O)CCC4(C)C3CCC21C (configuration not stated)	3%	12%
O=C(Cn1ccc2ccc(Cl)cc21)NCc1ccccc1	25%	50%[activator]
COc1ccc(N2CCN(C(=O)CCc3c(C)nn(-c4ccc(N5CCCC5)nn4)c3C)CC2)cc1	1%	-10%
COc1cc(-c2nc3ccc(Cl)cn3c2Nc2ccc3c(c2)OCCO3)ccc1O	53%[activator]	12%
Cc1ccccc1Oc1nc2ccccn2c(=O)c1/C=C(\C#N)c1nc2ccccc2[nH]1	-1%	0%
Cc1cccc(-c2c3c(=O)n(C)c(=O)n(C)c3cn2-c2cc(N)c(Cl)cc2Cl)c1	7%	-20%
Cc1sc(-c2cc3ccccc3oc2=O)nc1-c1ccc(Cl)c(Cl)c1	-15%	-13%

Structures from the list above that contain a thiophene ring, fused or not, in the order listed:
SMILES	2A Renilla	2A firefly
CN(C)CCNc1oc(-c2cccs2)nc1C#N	3%	-9%
CCOC(=O)c1c(NC(=O)c2cc3ccccc3c(=O)o2)sc2c1CCC(C)C2 (configuration not stated)	11%	12%
Cc1ccc(-c2csc3c2NC(=O)CC3c2ccc(C)cc2)cc1 (configuration not stated)	-2%	8%

5 compounds drawn at random from the list so far:
SMILES	2A Renilla	2A firefly
O/N=C(\c1ccc(O)cc1O)c1ccccc1F	24%	94%[activator]
CCOC(=O)c1c(NC(=O)c2cc3ccccc3c(=O)o2)sc2c1CCC(C)C2 (configuration not stated)	11%	12%
COc1ccccc1CNC(=O)Cn1c(=O)oc2cc(S(=O)(=O)N3CCCC3)ccc21	5%	7%
CC(=O)OC1(C)CCC2C3CCC4CC(=O)CCC4(C)C3CCC21C (configuration not stated)	3%	12%
CCOCCCNCc1cc(=O)oc2ccc3ccccc3c12	21%	15%

Going on with the list.
SMILES	2A Renilla	2A firefly
CCOc1ccc(-c2nc(C#N)c(N3CCN(Cc4ccccc4)CC3)o2)cc1	0%	9%
Cc1cc2oc(C(=O)N3CCN(c4cccc(Cl)c4)CC3)cc(=O)c2cc1C	4%	16%
Cc1cc(C)c2c(=O)n(CC(=O)Nc3ccc(C)c(F)c3)c(=O)n(-c3ccccc3)c2n1	-3%	8%
COc1ccc(OC)c(C2CCCN2CC(=O)N2CCN(c3cccc(C)c3)CC2)c1 (configuration not stated)	-15%	-15%
C=CC[N+](CC)(CC)CC#Cc1ccccc1	9%	0%
COc1cc([C@H]2[C@@H](C(=O)O)c3ccccc3C(=O)N2Cc2ccc(F)cc2)cc(OC)c1OC	-4%	-8%
COc1ccc2c(CCNC(=O)CSc3nc(Cl)nc4nc[nH]c34)c[nH]c2c1	-8%	-2%
O=C(Nc1nnc(N2CCCCCC2)s1)Nc1cc(F)ccc1F	-9%	19%
Cc1cccc(NC(=O)CSc2nnc(N)s2)c1	-5%	2%
COc1ccc(Cn2cc(C(=O)c3ccc(C)c(C)c3)c(=O)c3ccccc32)cc1	36%[activator]	-29%
COc1ccc(OC)c(CCNC(=O)c2cnn(-c3ccccc3)c2-n2cccc2)c1	1%	36%
Cc1cccc(N2CCN(C(=O)C3CCN(c4ncnc5c4nc4n5CCCCC4)CC3)CC2C)c1 (configuration not stated)	?	?
Cc1cccc(OCC(=O)Nc2nc3c(s2)CC(C(C)(C)C)CC3)c1C (configuration not stated)	-10%	2%
Clc1ccccc1CSc1nnc(C2CCNCC2)o1	1%	-4%
CC(=O)C1=C(c2ccc(OC(F)F)cc2)N(C(C)=O)n2c(nnc2-c2ccccc2)S1	1%	2%
N#CC1(NC(=O)Cn2c(=O)c3c(ncn3Cc3ccco3)n(Cc3ccccc3)c2=O)CCCC1	-10%	-7%
CCC(C)Oc1ccccc1/C=C(\C#N)c1nc2ccccc2[nH]1 (configuration not stated)	6%	0%
Cc1nc2ccc(Cl)cc2cc1C(=O)NCCOc1ccc(F)cc1	-16%	-11%
Cc1ccc(NC(=O)C2=C(c3ccccc3)NC(=S)NC2c2ccc(C)cc2)cc1 (configuration not stated)	0%	0%
O=C(NCc1ccc(F)cc1)c1ccc(CS(=O)(=O)c2ccc(Cl)cc2)o1	?	-42%
Cc1ccc(NC(=O)Cn2cc(C(=O)c3ccco3)c3ccccc32)cc1	-6%	-15%
CC1CCCCN1C(C)CNC(=S)Nc1ccc(F)cc1F (configuration not stated)	-9%	-9%
CC(C)Cn1nnnc1SCc1coc(-c2cccc(Cl)c2)n1	12%	46%[activator]
COc1ccc(CCNc2ncnc3c2cnn3-c2cccc(Cl)c2)cc1	-10%	3%
COc1cc2nc(NC(=O)c3ccccc3)[nH]c(=O)c2cc1OC	-6%	-8%

Later entries.
SMILES	2A Renilla	2A firefly
CC(C)CC1N=C2c3ccccc3N=C(SCC(=O)NCCc3ccc(Cl)cc3)N2C1=O (configuration not stated)	70%[activator]	-9%
COc1ccc(CCNC(=O)c2ccc3c(c2)N(Cc2c(F)cccc2Cl)C(=O)CS3)cc1OC	-10%	-12%
COc1ccccc1C1C=C(c2ccc(Cl)cc2)Nc2nc(-c3ccc(Cl)cc3)nn21 (configuration not stated)	-13%	-17%
COc1ccc(CCNc2nccn(-c3ccc(C)c(C)c3)c2=O)cc1OC	7.9µM*	?
Cc1ccc(-c2ccc(N)cc2)o1	-1%	15%
CCNC(=O)/C=C/c1ccc(OC)cc1	10%	150%[activator]
CC(C)N1CCc2c(sc(NC(=O)c3ccco3)c2-c2nc3ccccc3s2)C1	17%	93%[activator]
CN(C)CCCOC(=O)c1ccc(C(C)(C)C)cc1	-5%	0%
CCOC(=O)c1ccc(Nc2c(C(=O)OCC)cnc3ccc(OCC)cc23)cc1	0%	7%
Cc1cc(C)c2oc(C(=O)Nc3cccc(Cl)c3)cc(=O)c2c1	5%	25%
CN(C)CCNCc1ccc(-c2ccccc2)o1	-1%	6%
COc1ccc(C2C=C(c3ccccc3)Nc3nc(NS(=O)(=O)c4ccc(C)cc4)nn32)cc1 (configuration not stated)	-5%	7%
Cc1c(CC(=O)N2CCCCC2)c(=O)oc2cc3occ(C(C)(C)C)c3cc12	-9%	-13%
CCCCCCCCCc1ccc(-c2ccc(CCCCCCC)cc2)nc1	4%	0%
N#Cc1ccccc1OCC(=O)c1ccc2ccccc2c1	8%	0%
CCn1cc(C(=O)NCCc2ccc(C)cc2)c(=O)c2cc(S(=O)(=O)N3CCC(C)CC3)ccc21	-21%	-31%
Cc1ccc(C)c(S(=O)(=O)c2cn(C)c3cc(N4CCCCC4C)c(F)cc3c2=O)c1 (configuration not stated)	108%[activator]	0%
N#Cc1c(-c2ccccc2)cc(-c2cccs2)nc1SCCS(=O)Cc1ccccc1 (configuration not stated)	33%[activator]	-6%
COc1cc(OC)c(NS(=O)(=O)c2cc(C(=O)N3CCC3)ccc2C)cc1Cl	6%	-3%
COc1ccc(C(C)=O)cc1COc1ccc(C#N)cc1	18%	15%
COc1ccc(NC(=O)CN2C(=O)C3(SCC(=O)N3c3cccc(OC)c3)c3ccccc32)cc1 (configuration not stated)	-8%	-11%
CCOC(=O)c1ccc(NC(=O)CSc2nnc3c4ccccc4n(CC)c3n2)cc1	-16%	-12%
O=C(OC12CC3CC(CC(C3)C1)C2)c1ccc(Br)c([N+](=O)[O-])c1	12%	13%
COCCn1c(SCC(=O)c2ccc(F)cc2)nc2cc(C(=O)NC3CCCC3)ccc2c1=O	-9%	-19%
CCCn1c(CN2CCC(C)CC2)nc2c1c(=O)n(C)c(=O)n2C	4%	25%

A draw from above in order of heavy-atom count, low to high.
SMILES	2A Renilla	2A firefly
CCCCCCCCCc1ccc(-c2ccc(CCCCCCC)cc2)nc1	4%	0%
Cc1ccc(C)c(S(=O)(=O)c2cn(C)c3cc(N4CCCCC4C)c(F)cc3c2=O)c1 (configuration not stated)	108%[activator]	0%
COc1ccc(C2C=C(c3ccccc3)Nc3nc(NS(=O)(=O)c4ccc(C)cc4)nn32)cc1 (configuration not stated)	-5%	7%

Additional compounds:
SMILES	2A Renilla	2A firefly
CC1(C)CC(NC(=S)NC2CCCCC2)CC(C)(C)N1	4%	5%
COc1ccc(-n2ccn(CC(=O)Nc3ccc(C)cc3C)c(=O)c2=O)cc1	-4%	-14%
Cc1ccc(N(CC(=O)NCC2CCCO2)S(=O)(=O)c2ccccc2)cc1 (configuration not stated)	49%[activator]	12%
C=CCNC(=O)COC(=O)c1cc(-c2ccc(C)cc2)nc2ccccc12	24%	145%[activator]
O=C(CSc1ncc(CO)n1Cc1ccccc1)Nc1nc2ccccc2s1	-9%	19%
CCn1cc(S(=O)(=O)Nc2cc(F)ccc2C)cn1	0%	12%
COc1ccccc1NC(=O)C1=C(C)Nc2ncnn2C1c1ccccn1 (configuration not stated)	2%	-4%
CCN(CC)c1ccc(NC(=S)Nc2ccccc2)cc1	24%	150%[activator]
O=C(CCc1c[nH]c2ccccc12)Nc1ccc(N2CCCCC2)cc1	5%	26%
CCCc1cc(NCc2ccccn2)n2ncc(-c3ccccc3)c2n1	-3%	0%
CCn1cc(C(=O)NCc2ccc(F)cc2)c(=O)c2cc(S(=O)(=O)N(C)C)ccc21	10%	-3%
COc1ccc(C(=O)c2ccccc2C)cc1	10%	43%[activator]

Some of the compounds tested; the hit share may differ from the screen's.
